miR-21 reporter = qHTS Assay for Modulators of miRNAs and/orActivators of miR-21; HeLa miR-21 FLuc reporter, luciferase, 48 h; Potency, µM (doses to about 38.3 µM), for the others: top-dose reporter change, positive = more light; 340,000 tested, under 10 active; AID 2288, 2010; active = well fitted rising curve with a large enough effect; inconclusive = small, poorly fitted or top-dose-only effect; inactive = no such curve, though single readings can be large or run the other way;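 note: % of control where 0% means no effect; miR-21 action dims this reporter so a rising signal means less miR-21 action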
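HeLa cells endogenously expressing miR-21, stably carrying CMV-driven firefly luciferase with a downstream miR-21 binding site, 2000 cells/well. Titrations up to approximately 40 uM, 48 hours; luciferase luminescence read.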
Rango-impB inh = qHTS Assay for Inhibitors of Rango (Ran-regulated importin-beta cargo) - Importin beta complex formation | Importin subunit beta-1 (Homo sapiens), Q14974 | actives 0.031% (n = 340,000) | Potency, µM (titrated, usually from 92.2 µM), without a hit: top-dose inhibition of complex formation | Rango CFP/YFP FRET sensor + importin beta, 45 min; active = rising FRET ratio curve, often small or poorly fitted; inconclusive = mostly compound fluorescence or quenching in the first reads; inactive = flat curves in all reads;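 note: potency is the fitted concentration of half-maximal effect; 0% = DMSO wells and 100% = buffer wells lacking importin beta; nearly all actives have a fitted effect of over 15% in size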
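FRET biosensor (snurportin 1 IBB flanked by EYFP and cerulean), 50 nM, with compound 5 min, then 0.125 microM importin beta in PBS, 1 mM DTT, 0.02% Tween-20, 0.1% BSA. CFP/YFP ratio read after 45 min at room temperature; pre-read flags interference.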
GLA inh pH 4.5 = qHTS Assay for Inhibitors of Human alpha-Galactosidase at pH 4.5; Alpha-galactosidase A (Homo sapiens), P06280; purified enzyme, 4-MU-alpha-Gal fluorescence, pH 4.5; activity change, negative = inhibition, % at 105 µM; 230,000 tested, under 10 active; inconclusive = small, poorly fitted or top-dose-only inhibition, or a rising curve; inactive = flat fitted curve, though single readings scatter; no compound was filed as active;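 note: 0% = full activity with enzyme and -100% = basal without enzyme; dose as in the result columns while the protocol names 77 µM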
Target sequence (P06280 whole entry, looked up): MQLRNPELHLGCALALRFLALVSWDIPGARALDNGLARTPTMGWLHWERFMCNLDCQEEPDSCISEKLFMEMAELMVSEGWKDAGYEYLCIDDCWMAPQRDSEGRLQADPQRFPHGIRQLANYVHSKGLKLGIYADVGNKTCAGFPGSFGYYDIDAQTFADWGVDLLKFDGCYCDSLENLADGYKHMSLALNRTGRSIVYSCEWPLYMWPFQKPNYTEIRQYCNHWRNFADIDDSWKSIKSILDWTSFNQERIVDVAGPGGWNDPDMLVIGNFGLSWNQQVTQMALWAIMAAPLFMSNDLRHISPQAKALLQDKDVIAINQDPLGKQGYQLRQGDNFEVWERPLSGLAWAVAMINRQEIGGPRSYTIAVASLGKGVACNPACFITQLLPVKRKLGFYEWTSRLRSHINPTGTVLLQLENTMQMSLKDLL
Rango release inh = qHTS Assay for Inhibitors of RanGTP induced Rango (Ran-regulated importin-beta cargo) - Importin beta complex dissociation; Snurportin-1 (Homo sapiens) + GTP-binding nuclear protein Ran (Homo sapiens) + Importin …; AID 540253, 2011; actives 0.071% (n = 340,000); Biochemical FRET Rango-importin beta, RanGTP-induced dissociation; Potency, µM (top dose mostly 46.1 µM), inactives show at the top dose activity change, negative = inhibition; active means falling FRET ratio curve, often poorly fitted, with flat reads before Ran was added; inconclusive means other falling curves, or compound fluorescence or quenching; inactive means flat or rising ratio curve;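 note: potency is the fitted concentration of half-maximal effect; % of control where 0% means no effect; nearly all actives have a fitted effect of over 45% in size; -100% = wells without RanGTP and RCC1; the record marks most hits as doubtful in a second field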
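Two FRET readings bracket the reaction: one 5 min after compound meets Rango–importin beta, another 45 min after RanGTP-RCC1 (0.6 uM Ran, 0.2 uM RCC1, 2 mM GTP) is added. Only the second defines inhibition.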
Active calls of the source: *; ? = inconclusive; . = no result given; & = joins results of further samples; [ ] = remark or other dose. Not all compounds are listed; the hit share may differ from the screen's.

The opening 13 compounds (preview)
Order of values: miR-21 reporter	Rango-impB inh	GLA inh pH 4.5	Rango release inh
1	Cc1ccc(CNC(=O)C2CCN(S(=O)(=O)c3ccc4c(c3)CC(C)N4C(=O)C3CC3)CC2)cc1 (stereo not given)
 : 15.3%	-1.3%	.	-3.8%
2	CCOC(=O)[C@H]1[C@H]2COc3ccc(Br)cc3[C@H]2N2C(=O)CNC(=O)[C@@]12C
 : .	1.9%	.	0.8%
3	CCN(CC)c1ccc(C2NC(=O)NC(C)=C2C(=O)Nc2ccccc2)cc1 (stereo not given)
 : -1.2%	?	8.8	?
4	COC(=O)CCC(NS(=O)(=O)OCC(Cl)(Cl)Cl)c1ccccc1 (stereo not given)
 : -8.4%	-0.1%	.	-3.7%
5	O=C(O)C1C2C=CC3(CN(C/C=C/c4ccccc4)C(=O)C13)O2 (stereo not given)
 : -1.3%	-0.2%	1.2	-3.8%
6	O=C(O)CCC(=O)N(Cc1ccccc1)Cc1ccccc1
 : -6.4%	-0.4%	.	-3.9%
7	N#Cc1nc(-c2ccccc2F)oc1NCc1cccc2c1OCO2
 : -8.1%	-1.6%	-4.7	-0.5%
8	NC(=S)N/N=C/c1cccc(Br)c1
 : 8.5%	1.5%	2.2	-25.9%
9	CC(C)N1CC2=C(OC(N)=C(C#N)C2c2cccnc2)/C(=C/c2cccnc2)C1 (stereo not given)
 : -4.0%	?	12.0	?
10	O=C(CSc1n[nH]c(=O)[nH]c1=O)N1CCCCCC1
 : -1.6%	-2.5%	7.2	-3.9%
11	Cc1ccc(C(=O)Nc2nc3nc(-c4ccccc4)cc(=O)n3[nH]2)cc1
 : -1.4%&-4.2%	4.4%	12.3	2.4%
12	CC(C)c1cc(-c2cc(-c3ccc(Cl)cc3)on2)nc(NC2CCCC2)n1
 : 5.0%	-3.5%	2.2	-2.5%
13	CC(=O)N1CCN(c2ncnc3sc(-c4ccccc4)cc23)CC1
 : -19.4%	0.9%	5.7	0.9%

The listing, repeating the preview:
Order of values: miR-21 reporter	Rango-impB inh	GLA inh pH 4.5	Rango release inh
1	Cc1ccc(CNC(=O)C2CCN(S(=O)(=O)c3ccc4c(c3)CC(C)N4C(=O)C3CC3)CC2)cc1 (stereo not given)
 : 15.3%	-1.3%	.	-3.8%
2	CCOC(=O)[C@H]1[C@H]2COc3ccc(Br)cc3[C@H]2N2C(=O)CNC(=O)[C@@]12C
 : .	1.9%	.	0.8%
3	CCN(CC)c1ccc(C2NC(=O)NC(C)=C2C(=O)Nc2ccccc2)cc1 (stereo not given)
 : -1.2%	?	8.8	?
4	COC(=O)CCC(NS(=O)(=O)OCC(Cl)(Cl)Cl)c1ccccc1 (stereo not given)
 : -8.4%	-0.1%	.	-3.7%
5	O=C(O)C1C2C=CC3(CN(C/C=C/c4ccccc4)C(=O)C13)O2 (stereo not given)
 : -1.3%	-0.2%	1.2	-3.8%
6	O=C(O)CCC(=O)N(Cc1ccccc1)Cc1ccccc1
 : -6.4%	-0.4%	.	-3.9%
7	N#Cc1nc(-c2ccccc2F)oc1NCc1cccc2c1OCO2
 : -8.1%	-1.6%	-4.7	-0.5%
8	NC(=S)N/N=C/c1cccc(Br)c1
 : 8.5%	1.5%	2.2	-25.9%
9	CC(C)N1CC2=C(OC(N)=C(C#N)C2c2cccnc2)/C(=C/c2cccnc2)C1 (stereo not given)
 : -4.0%	?	12.0	?
10	O=C(CSc1n[nH]c(=O)[nH]c1=O)N1CCCCCC1
 : -1.6%	-2.5%	7.2	-3.9%
11	Cc1ccc(C(=O)Nc2nc3nc(-c4ccccc4)cc(=O)n3[nH]2)cc1
 : -1.4%&-4.2%	4.4%	12.3	2.4%
12	CC(C)c1cc(-c2cc(-c3ccc(Cl)cc3)on2)nc(NC2CCCC2)n1
 : 5.0%	-3.5%	2.2	-2.5%
13	CC(=O)N1CCN(c2ncnc3sc(-c4ccccc4)cc23)CC1
 : -19.4%	0.9%	5.7	0.9%
14	CC(C)Cc1ccc(/C=C/C(=O)N2CCOCC2)cc1
 : -47.1%	?	0.6	-7.8%
15	Nc1cc(N)nc(SCc2cc([N+](=O)[O-])cc3c2OCOC3)n1
 : -19.4%	-6.2%	-1.9	-17.8%
16	Nc1ncnc2c(C3OC(CO)C(O)C3O)scc12 (stereo not given)
 : .	-3.1%	.	7.1%
17	O=S(=O)(c1ccccc1)N1CCC(N2CCCCCC2)CC1
 : -11.6%	-2.9%	-0.1	5.1%
18	O=C(CSc1nc2cc(Cl)ccc2s1)NCC1CCCO1 (stereo not given)
 : .	4.9%	.	-2.6%
19	COc1ccc(S(=O)(=O)NCCc2cn3nc(C)c(C)nc3n2)cc1
 : -1.7%	1.3%	.	-2.9%
20	CC1(C)CC(=O)c2c(O)cc(OCC(=O)Nc3ccc(CCO)cc3)cc2O1
 : 5.8%	-0.6%	.	7.9%
21	CC(=NNC(=O)c1ccc(NS(=O)(=O)c2cccs2)cc1)c1ccc(OCC(N)=O)cc1
 : .	2.3%	.	5.5%
22	CCOc1ccc(CCNC(=O)COC(=O)c2sccc2C)cc1OCC
 : .	0.9%	.	19.5%
23	Cc1ccccc1Nc1sc(C(=O)Nc2cccc(Cl)c2)c(N)c1C(N)=O
 : -2.1%	-4.5%	-8.7	10.0%
24	COc1ccc(NC(=O)CCN2CCN(S(=O)(=O)c3ccc(Cl)cc3)CC2)cc1
 : 4.0%	-3.2%	-4.5	-20.1%
25	COc1ccc(C2=NOC(C(=O)Nc3c(C)n(C)n(-c4ccccc4)c3=O)C2)cc1 (stereo not given)
 : 0.0%	3.2%	-5.7	-2.5%
26	O=Cc1c(NCc2ccc(Cl)cc2)c2ccccc2[nH]c1=O
 : -1.9%	-1.6%	.	17.1%
27	Cc1noc(C)c1COc1cccc(C(=O)OC(C)C(=O)Nc2c(C)n(C)n(-c3ccccc3)c2=O)c1 (stereo not given)
 : 1.0%	1.1%	5.2	-10.0%
28	O=C(N/N=C/c1cccnc1)C1CCCCC1
 : -2.2%	?	3.9	-12.7%
29	COc1ccc(C(CNC(=O)COc2cccc(C)c2)N2CCCC2)cc1 (stereo not given)
 : .	-6.4%	.	-14.5%
30	C=CCn1cc(C(=O)NCc2cccnc2)c(=O)c2cc(S(=O)(=O)N(CC)CC)ccc21
 : -0.1%	0.8%	-28.7	0.4%
31	O=C(COC(=O)c1ccc(Br)o1)NCc1ccc(F)cc1
 : .	0.9%	.	6.0%
32	CCN=C(NCC)SC1CC(=O)N(c2ccc(OCC)cc2)C1=O (stereo not given)
 : -5.5%	-5.0%	3.0	0.1%
33	COCCNC(=O)Cn1cnc2c(cnn2-c2ccc(C)cc2)c1=O
 : -3.9%	0.6%	.	0.3%
34	COc1ccc(-c2c(-c3cc(OC)cc(OC)c3)n(C)c3ccc(-c4ccc(OC)c(F)c4)cc23)cc1
 : .	2.9%	.	-19.5%
35	O=C1COc2cc(ccc2[N+](=O)[O-])Oc2ccc(cc2Cl)C(=O)CCCCO1
 : .	-1.0%	.	-7.9%
36	COc1ccc(C)cc1NC(=O)COC(=O)Cc1ccc(-c2ccccc2)cc1
 : -3.4%	-1.0%	3.8	7.3%
37	CCN(CC)CCNC(=O)Cn1c(-c2ccccn2)nc2ccccc21
 : -4.9%	?	0.8	-18.1%
38	CCOc1ccc(N2CC(C(=O)N3CCc4ccccc43)CC2=O)cc1 (stereo not given)
 : 0.2%	-0.2%	.	10.6%
39	CCCC(=O)N=C1SC2CS(=O)(=O)CC2N1c1ccc(C(C)=O)cc1 (stereo not given)
 : -4.2%	7.9%	4.2	0.2%
40	CCN1CCN(c2cc(C)c3cc(NC(=O)CCC(=O)N4CCN(c5ccccc5OC)CC4)ccc3n2)CC1
 : -13.8%	3.3%	.	-5.2%
41	CCOc1ccc(CCNC(=O)COC(=O)c2c(C)nn(-c3ccccc3)c2C)cc1OCC
 : -0.1%	-0.8%	.	14.9%
42	NS(=O)(=O)c1ccc(-c2ccc(/C=N/Nc3ccc(C(=O)O)cc3)o2)cc1
 : -19.5%	?	-11.7	?
43	COc1c(C(CC(C)C)OC(C)=O)ccc2c1C(=O)OCc1cc(C)cc(O)c1O2 (stereo not given)
 : ?	2.3%	-2.9	-6.5%
44	O=C(CN1C(=O)NC2(CCCC2)C1=O)OCc1ccc(Cl)c(Cl)c1
 : .	-7.1%	.	-9.6%
45	COc1nc(-c2ccccc2)cc(-c2ccccc2)n1
 : 0.2%	-1.1%	2.7	6.9%
46	CCOc1cc(NC(=S)Nc2ccccc2OC)c(OCC)cc1NC(=O)c1ccccc1C
 : -0.3%	-0.3%	7.8	13.4%
47	COc1ccccc1OCCC(=O)NCc1ccc2c(c1)OCO2
 : 0.9%	-3.4%	1.9	-3.0%
48	CC1CCCCN1CC(=O)c1c[nH]c2ccccc12 (stereo not given)
 : -1.4%	-0.1%	.	-2.7%
49	Cc1cc(C(=O)CN2CC(C)OC(C)C2)c(C)n1-c1ccccc1 (stereo not given)
 : -50.8%	-2.0%	7.8	11.3%
50	O=C(NCc1cccnc1)c1cccc(S(=O)(=O)N2CCOCC2)c1
 : -1.7%	8.9%	2.0	-9.1%
51	CCCCOc1cccc(-c2cc(C(=O)NNC(=S)NCC)c3ccccc3n2)c1
 : -16.2%	-1.6%	-9.1	-7.2%
52	CC(C)(C)n1c(=O)[nH]c2c(c1=O)CCC2
 : -4.0%	-0.4%	.	10.2%
53	CCCCOc1ccc(C2C3CN(C(=O)OCC)CC=C3C(C#N)=C(N)C2(C#N)C#N)cc1OC (stereo not given)
 : -3.5%	?	14.3	-21.3%
54	COc1cc2c(cc1OC)CN(CC(=O)NC(=O)NCc1ccco1)CC2
 : -2.1%	?	9.7	-16.3%
55	COc1ccc(-c2cc(C(F)(F)F)nc(N3CCN(C)CC3)n2)cc1
 : -2.1%	4.8%	-6.9	-1.1%
56	COc1cc(NC(=O)CN(C)S(=O)(=O)c2cccs2)cc(OC)c1
 : -4.1%	1.0%	.	-0.7%
57	CCc1ccc(C(=O)C(C)OC(=O)Cc2n[nH]c(=O)c3ccccc23)cc1 (stereo not given)
 : 14.4%	1.0%	.	-6.3%
58	COc1c(C)cc(S(=O)(=O)N2CCOCC2)c(C)c1C
 : -5.8%	1.9%	3.5	11.5%
59	Cc1c(NC(=O)COc2cccc3c2OC(C)(C)C3)c(=O)n(-c2ccccc2)n1C
 : -0.8%	0.2%	-3.6	2.6%
60	O=C(CCc1ccncc1)N1CCCC(Nc2ccc(F)c(F)c2)C1 (stereo not given)
 : 8.0%	0.5%	.	6.4%

New compounds follow
Order of values: miR-21 reporter	Rango-impB inh	GLA inh pH 4.5	Rango release inh
61	CC(C)OC(=O)CC(=O)CSc1nc2c(cc1C#N)CCCCC2
 : -48.2%	?	-0.9	?
62	c1ccc(OCc2nc(-c3ccccc3)no2)cc1
 : -49.7%	-0.4%	10.4	0.7%
63	O=C(c1n[nH]c2ccccc12)N1CCCCC1
 : -0.6%	5.4%	-0.5	0.2%
64	COc1ccccc1CN(C)CC(=O)NC(=O)NC1CCCCC1
 : .	-1.7%	.	-9.2%
65	Cc1ccccc1-n1ccnc1SCC(=O)NCc1ccco1
 : 1.6%	?	-3.4[21.1 µM]	-17.8%
66	COc1cccc(C(=O)NCCS(=O)(=O)N2CCCC2)c1
 : .	0.9%	.	2.1%
67	Cc1cc(Cl)ccc1C(=O)C1CCCN(C(=O)c2cnsn2)C1 (stereo not given)
 : -3.9%	-1.9%	0.2	-7.3%
68	Cc1cccc(C(=O)NC(=O)Nc2c(C)cc(C)nc2C)c1
 : -51.9%	?	3.4	3.0%
69	O=c1[nH][nH]c(-c2ccccc2)c1C=Nc1ccc(OC(F)(F)F)cc1
 : -0.7%	-2.5%	5.8	-2.1%
70	Cc1cc(Cl)c(S(=O)(=O)N2CCCCCC2)cc1OCC(=O)NC1CCCCC1
 : ?	-1.3%	-4.8	0.5%
71	O=C(c1c(F)cccc1F)N(C1CCCCC1)C1CCCCC1
 : 16.3%	-0.1%	.	-9.9%
72	CCOC(=O)C(=O)NNc1ccc(C)cc1
 : 12.2%	-2.4%	2.8	-0.1%
